Bioassay records (PubChem)
B2AR ag: human beta-2 adrenergic receptor agonism by FAP; P07550; Am2.2-beta2AR cells, FAP receptor internalization, flow cytometry; reference of the scale not given here; response, % (concentration not given with the values); actives 0.43% (n = 340,000); AID 504454;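 active means response above a set limit, near 3 SD of response in nonfluorescent compounds, cut at about 42% in these data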;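 further: stock transfer was 100 nL into about 11 µL; a reference agonist was the positive control; negative values mostly stem from fluorescent compounds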
Target sequence (P07550 whole entry, looked up): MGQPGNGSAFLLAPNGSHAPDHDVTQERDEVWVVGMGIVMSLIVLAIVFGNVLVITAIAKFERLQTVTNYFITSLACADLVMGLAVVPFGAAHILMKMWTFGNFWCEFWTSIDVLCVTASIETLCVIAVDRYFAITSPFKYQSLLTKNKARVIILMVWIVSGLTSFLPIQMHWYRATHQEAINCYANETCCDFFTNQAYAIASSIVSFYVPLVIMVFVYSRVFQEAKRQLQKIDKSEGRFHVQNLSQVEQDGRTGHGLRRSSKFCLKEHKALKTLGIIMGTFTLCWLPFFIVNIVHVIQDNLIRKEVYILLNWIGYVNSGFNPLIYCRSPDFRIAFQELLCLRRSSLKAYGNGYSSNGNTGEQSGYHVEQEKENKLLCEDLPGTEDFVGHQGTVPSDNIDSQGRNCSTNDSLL
Beta apoptosis: blocks beta cell apoptosis; protection from apoptosis, % (test concentration not listed); INS-1E cytokine-induced death, ATP luminescence, 48 h; percent of positive-control rescue, neutral wells zero; actives 0.8% (n = 300,000);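 active means all replicates at 75% or more, or half of them and the mean; inconclusive means half reach 75% but not the mean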;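 further: 0% = cytokine-treated negative control wells and 100% = positive control rescue; higher means more ATP so stronger rescue from cytokine killing; wells of about 40 µL received 100 nL stock; the first replicate is given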
RanGTP-Impb inh: inhibitors of RanGTP-importin-beta interaction, primary screen, biochemical, FRET, CFP-Ran, YFP-importin-beta, homogeneous. actives 1.1% (n = 300,000). inhibition, % (concentration not given with the values). cell-free CFP-Ran/YFP-importin-beta FRET ratio;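 active means most replicates above 15%; inconclusive means exactly half above 15%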;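 further: 0% = DMSO wells and 100% = Ran loaded with GDP instead of GTP; wells of about 40 µL received 100 nL stock; the first replicate is given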
Calb FLC: C. albicans growth modulation with fluconazole; C. albicans CaCi-2 (fluconazole-resistant clinical isolate) + fluconazole, Alamar Blue growth, 48 h; growth inhibition, % (concentration not given with the values); actives 0.57% (n = 300,000); AID 1979;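 active means most replicates above 75%; inconclusive means exactly half above 75%; inactive means most below 75%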;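 further: all wells also contain fluconazole at 8 µg/ml as a sub-toxic cotreatment; 0% = median of DMSO wells and 100% = median of geldanamycin control wells; wells of about 8 µL received 7.5 nL stock; the first replicate is given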
Bfl-1 A1 inh: inhibitors of the anti-apoptotic protein A1, read as caspase activation; actives 0.066% (n = 330,000); MEF A1-2A-BIM cells, Caspase-Glo 3/7 luminescence, 3 h; percent of clofoctol response, vehicle zero; caspase activation, % (no concentration beside the values);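 active means over half of replicate activation scores above 10%, or exactly half above 10 with the replicate mean above 10; inconclusive means replicate mean below 10 yet half the replicates above 10; inactive means over half of replicates below 10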;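 further: wells of about 30 µL received 50 nL stock; many hits fall short of the cut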
UCH37 DUB inh: human UCH37 deubiquitinating enzyme inhibition | AID 588478 | purified proteasome/UCH37, Ub-AMC cleavage fluorescence | actives 0.33% (n = 330,000) | inhibition, % (no concentration beside the values);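 active means mean of two replicates above 20%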;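 further: 0% = compound-free wells with enzyme and 100% = wells lacking proteasome; stock transfer was 100 nL into about 20 µL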
Target sequence (Q9Y5K5 whole entry, looked up): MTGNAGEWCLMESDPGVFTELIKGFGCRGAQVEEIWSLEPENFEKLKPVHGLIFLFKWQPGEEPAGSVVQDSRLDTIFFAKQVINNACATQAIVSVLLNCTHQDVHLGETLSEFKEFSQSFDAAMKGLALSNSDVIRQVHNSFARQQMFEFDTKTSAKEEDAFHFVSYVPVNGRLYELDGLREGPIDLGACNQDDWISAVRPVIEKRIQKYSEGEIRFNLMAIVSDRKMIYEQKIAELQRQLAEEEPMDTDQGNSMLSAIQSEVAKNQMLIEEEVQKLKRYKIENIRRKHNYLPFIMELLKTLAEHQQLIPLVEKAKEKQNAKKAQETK
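assay system = human UCH37 enzyme supplied as purified proteasome complex | amount = proteasome at 0.15 nM in the dispensed enzyme solution | schedule = 30 min compound-proteasome preincubation then 25 min substrate reaction, room temperature | measured by = fluorescence, ex 355 nm, em 460 nm | benchmarks = no-proteasome wells (full inhibition) and compound-free wells (no inhibition)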
LANA-H2A inh: blocks KSHV LANA binding to histone H2A/H2B; actives 0.6% (n = 320,000); cell-free LANA-H2A/H2B peptide, fluorescence polarization; inhibition, % (test concentration not listed); Q9QR71; AID 2629; in the data active means inhibition mostly above about 10%, no sharp cut-off; inactive means mostly below about 6.7%;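 further: stock transfer was 7.5 nL into about 10 µL; 0% = median of vehicle wells and 100% = median of positive control wells; one replicate is shown; the record names a cut of 25% in any replicate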
T cruzi repl: blocks replication of Trypanosoma cruzi | inhibition, % (test concentration not listed) | T. cruzi beta-gal in NIH3T3, luminescence, 90 h | actives 1.4% (n = 300,000) | AID 1885;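 active means mean inhibition across valid replicates above about 55%, limit read from the data; inconclusive means mean below that limit but half or more replicates reach it; inactive means mean below it, under half of replicates reach it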;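 further: signal also drops with host cell toxicity which is not excluded here; 0% = plate median of DMSO wells and 100% = zero luminescence signal; higher percent means less beta-gal luminescence so fewer parasites; stock transfer was 50 nL into about 50 µL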
* marks the source's active call; other numbers are inactive results; ? = inconclusive; . = not tested or not shown. The order is random (roughly 4.3% active in at least one column).

SMILES | B2AR ag | Beta apoptosis | RanGTP-Impb inh | Calb FLC | Bfl-1 A1 inh | UCH37 DUB inh | LANA-H2A inh | T cruzi repl
Cn1c(Sc2ccc([N+](=O)[O-])cc2C(F)(F)F)nnc1-c1ccccc1 | -6 | . | -2.1 | -12 | 0.5 | 4.0 | 0.8 | ?
CCOC(=O)N1CCN(C(=S)Nc2cccc(C)c2C)CC1 | -2 | -6 | -0.4 | 1 | 0.7 | 4.0 | 2.2 | -3
Cc1ccccc1Nc1n[nH]c(C)c1[N+](=O)[O-] | -13 | 2 | 1.4 | 7 | 1.2 | 4.4 | 1.2 | -1
Cn1cc(CN2CCc3c([nH]c4ccccc34)C2C(C)(C)C)cn1 (stereo unspecified) | -4 | -4 | -0.2 | -4 | 0.8 | -6.6 | 1.4 | 14
O=C(Nc1cccc2ncccc12)C(Cl)(Cl)Cl | -4 | 11 | -1.3 | -11 | -0.1 | -2.0 | 5.4 | -20
COc1ccc(-n2cc(-c3ccccc3)[nH]c2=S)c(OC)c1 | -17 | 7 | -1.5 | 4 | 0.8 | -2.7 | 6.0 | 8
O=C(Nc1ccccc1F)C1CC1c1ccccc1 (stereo unspecified) | 3 | 2 | 0.8 | -5 | 0.2 | -0.7 | 3.8 | -3
O=C1c2ccccc2CSc2c(O)cccc21 | 6 | -2 | 1.0 | 8 | 1.5 | 3.9 | 1.6 | -21
O=C(CSc1nnc(COc2ccc(Cl)cc2Cl)o1)Nc1ccccn1 | -3 | -6 | 3.2 | 2 | -0.5 | -0.2 | -2.4 | -13
OCCC1CN(Cc2ccccc2O)CCN1CCCc1ccccc1 (stereo unspecified) | 8 | 2 | -0.3 | -1 | 0.3 | 0.8 | -4.0 | 16

Single records (already shown). Order of screens: B2AR ag	Beta apoptosis	RanGTP-Impb inh	Calb FLC	Bfl-1 A1 inh	UCH37 DUB inh	LANA-H2A inh	T cruzi repl
`OCCC1CN(Cc2ccccc2O)CCN1CCCc1ccccc1` (stereo unspecified) as listed: 8	2	-0.3	-1	0.3	0.8	-4.0	16
`Cn1c(Sc2ccc([N+](=O)[O-])cc2C(F)(F)F)nnc1-c1ccccc1` as listed: -6	.	-2.1	-12	0.5	4.0	0.8	?

The list continues:
SMILES | B2AR ag | Beta apoptosis | RanGTP-Impb inh | Calb FLC | Bfl-1 A1 inh | UCH37 DUB inh | LANA-H2A inh | T cruzi repl
O=C(CCN1C(=O)[C@@H]2Cc3ccccc3CN2C1=O)N[C@H](Cc1ccccc1)C(=O)O | -6 | -9 | 2.7 | -1 | 0.2 | 4.9 | -0.1 | -22
Cc1ccc[n+](-c2nc([O-])sc2C=O)c1 | -1 | 0 | . | . | -0.2 | 4.9 | 29* | .
CCN(CC)C(=O)Oc1nnc(SC(C)C)n1-c1ccc(Cl)c(Cl)c1 | -6 | 0 | 1.0 | -4 | -2.1 | 1.5 | 0.0 | 25
O=C(NCC1CCCO1)c1cccc2c1C(=O)c1ccc(N3CCC(Cc4ccccc4)CC3)cc1S2(=O)=O (stereo unspecified) | 2 | 10 | . | . | 0.4 | 2.5 | 3.9 | .
CCc1ccc(C(=O)Nn2cnc3ccccc3c2=O)cc1 | -8 | -2 | -1.6 | -6 | 0.1 | 2.3 | -2.6 | -2
Cc1cccn2c(=O)c(/C=C(\C#N)S(=O)(=O)c3ccccc3)c(N3CCC(C(N)=O)CC3)nc12 | -4 | -3 | 9.9 | 11 | 0.1 | 1.9 | 1.0 | -4
Cc1nc(SCC(=O)Nc2cccc(Cl)c2)n[nH]1 | -7 | -4 | 0.8 | 2 | 0.0 | -2.3 | -3.4 | 4
CC(C)(C)OC(=O)NCCC(=O)Oc1ccc2ccc(=O)oc2c1 | -7 | -1 | 5.5 | -3 | -0.8 | . | -3.2 | -4
N=c1c2c(ncn1Cc1ccco1)Oc1c(ccc3ccccc13)C2c1ccccc1 (stereo unspecified) | 23 | . | 3.4 | -5 | 0.0 | 4.3 | 7.7 | -11
Cc1ccc(F)c(NC(=O)/C(C#N)=C(\O)c2ccc(C(C)(C)C)cc2)c1 | 17 | -2 | -1.4 | 47 | -2.5 | -3.0 | 7.3 | -2
COCCn1c(CN2CCc3ccccc3C2)nc2c1c(=O)n(C)c(=O)n2C | 1 | 1 | 0.1 | -1 | -0.1 | 4.6 | -3.0 | -6
Cc1nc(NCCc2ccc(F)cc2)c(C#N)c(C)c1[N+](=O)[O-] | 2 | -8 | ? | -3 | 0.2 | 5.3 | -7.6 | 16
Clc1ccc2c(N/N=C/c3cccc(Br)c3)ccnc2c1 | 46* | 81* | -0.5 | -4 | -1.2 | . | -1.3 | 51
O=c1c2ccccc2c(-c2ccc(O)cc2)nn1-c1cccc(C(F)(F)F)c1 | -6 | 6 | 2.8 | ? | 0.8 | 0.0 | 0.3 | 22
COc1ccc(N(C)C(=O)c2cn(CC(C)C)c(=O)c3cc(OC)c(OC)cc23)c(OC)c1 | 2 | 2 | 4.7 | 7 | -0.6 | 0.8 | -0.8 | 9
O=C(CCN1C(=O)/C(=C/c2ccccc2Cl)SC1=S)NC1=NCCS1 | 5 | -4 | -1.9 | 4 | -0.1 | 5.0 | -6.1 | 5
COc1ccc(Cn2c(=S)[nH]c3cc(C(=O)N4CCCCC4)ccc3c2=O)cc1 | 10 | 1 | 2.0 | 0 | -0.5 | 3.8 | -5.0 | 14
COc1ccccc1NC(=O)Cn1nc(-c2ccc3c(c2)OCCO3)ccc1=O | -1 | -6 | ? | 41 | 0.0 | 1.2 | -2.1 | 5
C/C(=N\NC(=O)C(N)=O)c1cccc([N+](=O)[O-])c1 | -4 | 4 | 4.1 | -1 | -0.5 | . | 5.4 | 5
N#Cc1c(N2CCN(C(=O)c3ccco3)CC2)nc(-c2ccccc2)c2c1CCCC2 | 22 | 69 | 2.5 | 19 | -0.5 | -145 | -0.5 | 61*
CC(C)CCn1c(=O)c2ccccc2n2c(CCl)nnc12 | -1 | -5 | ? | 14 | 0.4 | 0.6 | 5.5 | 35
CN(C)c1nc(N)c([N+](=O)[O-])c(NCc2ccccc2)n1 | -5 | -4 | -0.5 | -7 | -0.6 | 4.7 | -4.4 | -10
CCOC(=O)C(Oc1ccc(=O)[nH]n1)C(C)=O (stereo unspecified) | -1 | -1 | ? | . | 1.0 | 6.0 | 0.5 | -21
C/C=C/Cn1c(SCc2ccccc2)nc2c1c(=O)[nH]c(=O)n2C | -10 | 7 | -1.8 | -1 | 0.0 | 4.3 | -2.8 | 10
CCN(CC(=O)Nc1c(F)cccc1F)C(=O)C1CC1 | -1 | 3 | . | . | -1.3 | 1.4 | -5.7 | .
CCNC(=S)Nc1cccc(S(=O)(=O)NC2=NCCC2)c1 | -1 | 0 | -3.8 | 3 | -0.6 | 0.7 | -1.5 | -15
COCCn1c(SCC#N)nnc1-c1ccccc1O | -3 | -3 | 3.5 | 0 | 1.0 | 4.7 | 8.1 | -14
COc1ccc(C)cc1NC(=O)C1CCN(S(=O)(=O)c2cccc3cccnc23)CC1 | -8 | . | 0.4 | -2 | . | 6.0 | . | 12
COCc1c(C(=O)N/N=C/C2CC=CCC2)nnn1-c1nonc1N (stereo unspecified) | -8 | 4 | 1.7 | -17 | 1.2 | . | 2.1 | -3
Cn1cc(SCC(=O)N2CCCc3ccccc32)c2ccccc21 | 4 | -5 | -1.0 | -1 | 0.0 | 2.9 | 5.8 | 6
CCN1C(=O)C(=O)N(CC(=O)c2cc(C)n(C3CC3)c2C)C1=O | 1 | -2 | . | . | 1.2 | 3.9 | 3.2 | .
COc1ccc(OC)c(-n2c(-c3cccc(C)c3)n[nH]c2=S)c1 | 2 | 4 | 9.7 | 12 | 0.1 | -2.0 | 1.9 | 4
COc1ccc(S(=O)(=O)NC(CC(=O)N2CCc3ccccc32)c2ccco2)cc1 (stereo unspecified) | -8 | . | 0.4 | 17 | -0.1 | 3.8 | 0.1 | 15
CCN(CC)C(=O)c1ccc(C(=O)c2c(C)cc(C)cc2C)cc1 | 3 | -3 | 1.3 | -15 | -0.7 | 0.3 | 1.1 | 16
Cc1cc(N2CCN(c3ccccc3)CC2)nc(-n2nc(C)cc2C)n1 | -2 | 60 | -4.6 | -24 | -1.1 | 0.9 | -1.2 | 26
COc1ccc(CCNC(=O)c2ccc(-c3ccc([N+](=O)[O-])cc3Cl)o2)cc1 | -8 | -2 | -1.4 | 10 | 0.0 | 3.7 | 2.8 | 2
COc1ccc(NC(=O)Nc2cccs2)cc1OC | -15 | -2 | -1.8 | -11 | -2.6 | 1.3 | 6.0 | 3
CC(C)C1=CC(=Nc2ccc(S(N)(=O)=O)cc2)C=C(C(C)C)C1=O | 0 | -10 | 0.7 | 0 | -5.6 | -2.4 | -1.1 | -6
Cc1cccn2cc(CNC(=O)CC3CCCC3)nc12 | 1 | -6 | -1.0 | -6 | -0.3 | -1.6 | 0.8 | 4
C=CCOc1c(Br)cc(/C=N\n2nnnc2N)cc1OC | 0 | -6 | 7.3 | -2 | 0.2 | . | -0.1 | -1
CN(C)CCNC(=O)COc1ccc(C23CC4CC(CC(C4)C2)C3)cc1 | 21 | 13 | 1.9 | -15 | -0.4 | 7.8 | 5.5 | 68*
[O-][n+]1onc2c1C(N1CCOCC1)CCC2N1CCOCC1 (stereo unspecified) | -4 | . | 2.5 | 6 | -0.9 | -0.3 | -2.7 | -12
CCOc1ccccc1C(=O)Nc1cccc2ccccc12 | -9 | . | -0.2 | 4 | 0.1 | 5.4 | -2.7 | 4
CCN(C(=O)COC(=O)CCS(=O)(=O)c1ccc(C)cc1)C1CCS(=O)(=O)C1 (stereo unspecified) | -2 | -5 | -1.6 | -3 | -0.8 | 6.1 | 0.6 | 1
CCOc1ccccc1-c1nnc(SCC(=O)Nc2ccccc2)o1 | 3 | -4 | -2.1 | 7 | 0.3 | 6.1 | 1.4 | -7
COc1cccc(CN2CCNC(=O)C2CC(=O)N(C)CCc2ccccn2)c1 (stereo unspecified) | 3 | -1 | -1.1 | -15 | -0.4 | -2.0 | 0.4 | -6
CCN(CC)C(=O)c1nc[nH]c1C(=O)N(C)Cc1ccccc1 | -2 | -6 | . | . | 1.0 | 26* | -4.0 | .
O=CN(/C=C1\Sc2ccccc2C1=O)Cc1ccccc1 | 8 | . | ? | -22 | -0.2 | 2.4 | 2.4 | 9
O=C(CSc1nnc(COc2ccccc2)o1)Nc1nccs1 | 6 | 1 | 3.0 | 0 | 0.4 | -0.7 | -0.3 | -16

By substructure, the compounds so far containing a tert-butyl group.
SMILES | B2AR ag | Beta apoptosis | RanGTP-Impb inh | Calb FLC | Bfl-1 A1 inh | UCH37 DUB inh | LANA-H2A inh | T cruzi repl
Cn1cc(CN2CCc3c([nH]c4ccccc34)C2C(C)(C)C)cn1 (stereo unspecified) | -4 | -4 | -0.2 | -4 | 0.8 | -6.6 | 1.4 | 14
CC(C)(C)OC(=O)NCCC(=O)Oc1ccc2ccc(=O)oc2c1 | -7 | -1 | 5.5 | -3 | -0.8 | . | -3.2 | -4
Cc1ccc(F)c(NC(=O)/C(C#N)=C(\O)c2ccc(C(C)(C)C)cc2)c1 | 17 | -2 | -1.4 | 47 | -2.5 | -3.0 | 7.3 | -2
